From PubChem BioAssay
GLA inh pH 4.5 = alpha-galactosidase A (human) inhibition, pH 4.5. purified enzyme, 4-MU-alpha-Gal fluorescence, pH 4.5. 230,000 tested, under 10 active. activity change, negative = inhibition, % at 105 µM. AID 1467; inconclusive = small, poorly fitted or top-dose-only inhibition, or a rising curve; inactive = flat fitted curve, though single readings scatter; no compound was filed as active;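 also: 0% = full activity with enzyme and -100% = basal without enzyme; dose as in the result columns while the protocol names 77 µM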
miR-21 reporter = miR-21 reporter, rising signal. HeLa miR-21 FLuc reporter, luciferase, 48 h. Potency, µM (top dose mostly 38.3 µM), for the others: top-dose reporter change, positive = more light. 340,000 tested, under 10 active; active = well fitted rising curve with a large enough effect; inconclusive = small, poorly fitted or top-dose-only effect; inactive = no such curve, though single readings can be large or run the other way;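 also: % of control where 0% means no effect; miR-21 action dims this reporter so a rising signal means less miR-21 action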
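HeLa cells endogenously expressing miR-21, stably carrying CMV-driven firefly luciferase with a downstream miR-21 binding site, 2000 cells/well. Titrations up to approximately 40 uM, 48 hours; luciferase luminescence read.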
Rango complex inh = Rango-importin beta binding inhibition | Q14974 | Rango CFP/YFP FRET sensor + importin beta, 45 min | Potency, µM (top dose mostly 92.2 µM), inactives show top-dose inhibition of complex formation | 340,000 tested, 0.031% active; active = rising FRET ratio curve, often small or poorly fitted; inconclusive = mostly compound fluorescence or quenching in the first reads; inactive = flat curves in all reads;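 also: potency is read from the fitted curve at half-maximal effect; 0% = DMSO wells and 100% = buffer wells lacking importin beta; nearly all actives have a fitted effect of over 15% in size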
Target sequence (Q14974 whole entry, looked up): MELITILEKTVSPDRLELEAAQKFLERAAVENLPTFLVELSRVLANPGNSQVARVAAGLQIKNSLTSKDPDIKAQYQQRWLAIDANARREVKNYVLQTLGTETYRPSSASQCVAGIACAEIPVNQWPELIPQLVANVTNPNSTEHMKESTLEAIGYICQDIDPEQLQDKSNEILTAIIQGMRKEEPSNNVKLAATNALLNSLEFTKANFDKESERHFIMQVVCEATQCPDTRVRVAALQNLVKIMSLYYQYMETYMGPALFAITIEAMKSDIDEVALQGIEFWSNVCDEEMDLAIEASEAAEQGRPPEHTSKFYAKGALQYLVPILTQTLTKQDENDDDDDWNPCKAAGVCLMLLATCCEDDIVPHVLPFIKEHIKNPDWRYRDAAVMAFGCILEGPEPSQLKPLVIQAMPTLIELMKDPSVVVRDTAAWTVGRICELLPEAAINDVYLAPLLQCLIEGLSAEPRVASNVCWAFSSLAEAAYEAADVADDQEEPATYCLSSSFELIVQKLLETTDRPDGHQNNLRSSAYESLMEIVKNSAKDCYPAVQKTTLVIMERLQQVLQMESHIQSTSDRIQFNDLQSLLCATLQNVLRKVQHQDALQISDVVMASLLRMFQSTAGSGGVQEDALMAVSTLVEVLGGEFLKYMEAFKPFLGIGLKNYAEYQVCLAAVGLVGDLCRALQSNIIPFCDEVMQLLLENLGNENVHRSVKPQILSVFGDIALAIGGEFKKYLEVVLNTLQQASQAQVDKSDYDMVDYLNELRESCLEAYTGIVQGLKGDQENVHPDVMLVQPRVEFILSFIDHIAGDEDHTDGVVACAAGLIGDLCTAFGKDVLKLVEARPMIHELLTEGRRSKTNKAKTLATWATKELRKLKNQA
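FRET biosensor Rango (snurportin 1 IBB between N-terminal EYFP and C-terminal Cerulean), 50 nM in PBS/1 mM DTT/0.02% Tween-20/0.1% BSA, preincubated 5 min RT with compound; 0.125 microM importin beta added, 45 min RT, CFP/YFP FRET ratio read.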
Rango dissoc inh = inhibition of RanGTP-driven Rango-importin beta dissociation | Biochemical FRET Rango-importin beta, RanGTP-induced dissociation | AID 540253 | Potency, µM (highest dose often 46.1 µM), inactives show at the top dose activity change, negative = inhibition | O95149+P62826 | 340,000 tested, 0.071% active; active means falling FRET ratio curve, often poorly fitted, with flat reads before Ran was added; inconclusive means other falling curves, or compound fluorescence or quenching; inactive means flat or rising ratio curve;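 also: potency is read from the fitted curve at half-maximal effect; % of control where 0% means no effect; nearly all actives have a fitted effect of over 45% in size; -100% = wells without RanGTP and RCC1; the record marks most hits as doubtful in a second field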
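Rango (0.1 uM)–importin beta (0.25 uM) complex; RanGTP-RCC1 trigger; 45 min RT; CFP/YFP FRET read.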
Numbers without * were called inactive; ? = inconclusive; / = not tested or not shown; [ ] = another dose, or the depositor's remark.

No.	Rango complex inh	miR-21 reporter	GLA inh pH 4.5	Rango dissoc inh	SMILES
1	4.2%	-4%	/	7%	Cc1ccccc1OCCN1CCCC1
2	3.7%	-2%	2	-6%	COc1c(C)cc(Br)cc1C(=O)Nc1ccc(C)cc1[N+](=O)[O-]
3	-0.8%	5%	/	-8%	O=C(O)Cn1c2c(c3ccccc31)CSc1ccc(Cl)cc1-2
4	?	23%	-8	?	N#CC1=C(SCC(=O)c2ccc(Cl)cc2)NC2=C(C(=O)CCC2)C1c1ccco1 (stereo not drawn)
5	-2.8%	-4%	-6	8%	Cn1cc(C(=O)NC2CCCCC2)c(=O)c2cc(S(=O)(=O)N3CCCC3)ccc21
6	0.9%	/	/	3%	COc1ccccc1CNC(=O)CCN=C1NS(=O)(=O)c2ccccc21
7	-1.9%	-10%	0	1%	O=C(CCS(=O)(=O)Cc1ccc(Cl)cc1)NCCc1ccccc1
8	2.8%	-2%	0	-9%	CCCCN(CCCC)C(=O)CCS(=O)(=O)c1ccc2c(c1)n(C)c(=O)c(=O)n2C
9	-0.8%	/	/	10%	COc1ccc([C@H]2CC(=O)C=C(c3ccc(Cl)c(C(F)(F)F)c3)C2)cc1
10	2.2%	7%	/	-8%	COc1cccc(N2CCN(c3ccc4nnc(CCC(=O)N5CCC(C)CC5)n4n3)CC2)c1
11	-2.1%	/	/	-4%	COc1ccc(NS(=O)(=O)c2ccc(F)c(F)c2F)cc1S(=O)(=O)N1CCOCC1
12	-0.1%	0%	/	-5%	COc1cc(NC(=O)[C@H]2CSCN2C(=O)[C@@H]2CCC(=O)N2)cc(OC)c1OC
13	-3.4%	-14%	/	-6%	NC(=O)C1CCN(C(=O)CCSCc2ccccc2)CC1
14	-0.6%	-18%	-4	-20%	CCOC(=O)CN(C(=O)CNC(=O)c1ccco1)C(C(=O)NC1CCCCC1)c1cccc(OC)c1 (stereo not drawn)
15	0.8%	-9%	-8	4%	CCCCC(=O)Nc1ccc(C(=O)Nc2ccc3c(c2)OCO3)cc1
16	4.1%	/	/	4%	COCCN(C(=O)COC(=O)CCOc1ccccc1)c1c(N)n(Cc2ccccc2)c(=O)[nH]c1=O
17	0.1%	25%	7	-4%	Cc1nc2c(C)cccc2c2c1CCN2c1ccccc1F
18	-0.2%	-8%	/	4%	C/C(CC(=O)Nc1cc(C)ccn1)=N\NC(=O)c1ccc(C(C)(C)C)cc1
19	-3.6%	-4%	-5	3%	CC1CC(C)(C)CC2(C1)NC(=O)N(CC(=O)NCC(c1ccco1)N1CCCCC1)C2=O (stereo not drawn)
20	0.1%	/	/	4%	COC(=O)[C@H](CCSC)NC(=O)Cn1cc(C)c(=O)[nH]c1=O
21	-1.1%	-7%	-17	2%	O=C(Nc1cccc(Cl)c1)NC1CC2CCC(C1)N2Cc1cccs1 (stereo not drawn)
22	-0.2%	3%	1	1%	CCOC(=O)C(C(=O)OCC)C1CCS(=O)(=O)C1 (stereo not drawn)
23	3.0%	-29%	-9	0%	Cc1nc(-c2cn[nH]c2)c2cc(C)oc2n1
24	2.5%	7%	/	?	Cc1cccc(NS(=O)(=O)c2ccc(C(=O)NCCCN3CCOCC3)cc2)c1C
25	1.4%	/	/	1%	Cc1ccc2nc(SCC(=O)N3CCCC3)nc(=O)n2c1
26	-2.2%	-11%	-19	15%	O=C(C1CC1)N1CCN=C1SCc1cccc(C(F)(F)F)c1
27	-0.5%	0%	-1	-1%	COc1ccc(CCNC(=O)CSc2ccc(-c3cccs3)nn2)cc1
28	-0.9%	2%	6	1%	CC(=O)Oc1ccc(S(=O)(=O)c2ccc(OC(C)=O)cc2)cc1
29	-0.5%	-3%	-5	-7%	COc1ccccc1NC(=O)C1=C(C)NC(=O)NC1c1ccc(C)cc1 (stereo not drawn)
30	?	-2%	5	?	CCCNC(=O)c1c(N)n(-c2ccc(S(N)(=O)=O)cc2)c2nc3ccccc3nc12

The results go on:
No.	Rango complex inh	miR-21 reporter	GLA inh pH 4.5	Rango dissoc inh	SMILES
31	0.5%	-3%	-9	-6%	Cn1nc(C(=O)NNC(=O)COc2ccccc2)c2ccccc2c1=O
32	-0.8%	-2%	2[21.1 µM]	-4%	CC(C)C(C)NC(=O)CN1C(=O)NC2(CCCCCC2)C1=O (stereo not drawn)
33	2.1%	-6%	/	-21%	CCOC(=O)c1c(-c2ccc(OC)cc2)oc2cc(Br)c(O)cc12
34	-2.2%	-12%	-11	6%	Cc1cc2nc(-c3ccc(SCc4ccccc4C#N)nc3)[nH]c2cc1C
35	-0.2%	-1%	-2	5%	O=C(O)c1cnn2c(C(F)F)cc(C3CC3)nc12
36	1.5%	-1%	/	3%	Cc1cc(C)n(C(=O)CNC(=O)c2ccc(Cl)cc2Cl)n1
37	-3.9%	7%	2	-12%	Cc1ccccc1OCC(=O)N/N=C/c1ccncc1
38	-5.3%	-1%	-30	-17%	Cc1cc(NC(=O)c2cc(Cl)ccc2Cl)no1
39	-3.5%	6%	/	0%	Cc1ccc(C)c(N2CCN(C(=O)c3ccc(N4CCCC4=O)cc3)CC2)c1
40	-3.5%	2%	0	-10%	Cc1ccccc1C1NC(=S)NC2=C1C(=O)CCC2 (stereo not drawn)
41	6.6%	-18%	/	2%	c1ccc2c(c1)OCC(CNCC1COc3ccccc3O1)O2 (stereo not drawn)
42	-1.1%	1%	3	10%	Cc1ccc(CC2C(=O)N(c3ncccn3)C(=O)C2C)cc1 (stereo not drawn)
43	-0.3%	?	2	-1%	CCC(=O)Nc1ccc(C(=O)Cn2ncc(Cl)c(Cl)c2=O)cc1
44	0.4%	-43%	-9	2%	Fc1cccc(Cl)c1CSc1ccc(-c2ccco2)nn1
45	-3.1%	-23%	-2	3%	CC(C)(C)C1=NN(C(=O)c2ccccc2)C(O)(C(C)(C)C)C1 (stereo not drawn)
46	-2.0%	0%	-12	-14%	CCOC(=O)C[N+]1(C)CCN(C(C)=O)CC1
47	-0.5%	-11%	-1	8%	Cc1ccc(-c2nnc(SC(C)C#N)n2N)cc1 (stereo not drawn)
48	-2.4%	-2%	5	-4%	COCCn1c(SCC(=O)N2CCc3ccccc32)nc2c(c1=O)SC(C)C2 (stereo not drawn)
49	-1.8%	1%	3	17%	CC(CC1CC(C)(C)OC1=O)C(=O)Nc1nncs1 (stereo not drawn)
50	-6.3%	0%	4	8%	Cc1cc(C)n(-c2nc(C)nc3c2cnn3-c2ccccc2)n1
51	-4.2%	/	/	-1%	O=C(CSc1n[nH]c(-c2ccco2)n1)Nc1ccccc1
52	-3.1%	6%	1	2%	COc1ccccc1-n1c(SCC(=O)Nc2nnc(C)s2)nc2c(c1=O)SCC2
53	-0.3%	1%	-4	6%	NC(=O)/C(=C\c1ccccc1)NC(=O)/C=C/c1ccccc1
54	-0.3%	-3%	0	5%	CC1=C(C(=O)Nc2cccc(C)c2C)C(c2cccs2)NC(=S)N1 (stereo not drawn)
55	3.8%	-1%	-13	51%	CCn1c(SCC(=O)N/N=C/c2ccccc2OCC(=O)O)nnc1-c1ccc(C)cc1
56	-0.1%	-6%	/	-5%	COc1c(S(=O)(=O)N2CCN(C)CC2)ccc(Cl)c1Cl
57	-0.4%	/	/	1%	CCCCCCCCN1[C@@H](CC(=O)OC)c2cc(C(F)(F)F)ccc2S1(=O)=O
58	1.6%	/	/	10%	COC(=O)[C@@]12CCCCN1[C@H](c1ccc(-c3cccc(Cl)c3)cc1)[C@H]1C(=O)N(C)C(=O)[C@H]12
59	?	-113%	-11	-17%	Nc1cnc(Nc2ccc(Br)cc2)nc1N
60	-0.5%	-14%	2	-7%	O=C(Nc1ccc(-c2ccc3nncn3n2)cc1)c1ccc(Br)o1

Complete entries, quoted from the list. Order of screens: Rango complex inh | miR-21 reporter | GLA inh pH 4.5 | Rango dissoc inh
`COc1c(S(=O)(=O)N2CCN(C)CC2)ccc(Cl)c1Cl` reads -0.1% | -6% | / | -5%
`CCOC(=O)C[N+]1(C)CCN(C(C)=O)CC1` reads -2.0% | 0% | -12 | -14%

The list continues:
No.	Rango complex inh	miR-21 reporter	GLA inh pH 4.5	Rango dissoc inh	SMILES
61	-4.1%	-1%	/	4%	Cc1cccc(N(C(=O)c2sc(C)nc2C)C(C(=O)NCC2CCCO2)c2ccccc2)c1 (stereo not drawn)
62	1.3%	/	/	1%	Cc1ccc(C(=O)COC(=O)COc2ccccc2O)cc1C
63	3.0%	2%	/	5%	Cc1ccc(-c2nc(CS(=O)CC(=O)NC3CCCC(C)C3C)c(C)o2)cc1 (stereo not drawn)
64	0.2%	0%	-11	7%	CCN(CC)S(=O)(=O)c1cccc(C(=O)OCC(=O)Nc2ccccc2OC(F)F)c1
65	1.9%	-1%	-3	-5%	Fc1ccccc1Cn1nnc2c(NCc3ccccn3)ncnc21
66	-0.6%	1%	/	22%	CCNS(=O)(=O)c1ccc(CCC(=O)Nc2ccc3c(c2)OCCO3)cc1
67	?	-6%	3	-16%	CN(C)c1ccc(C2SCCN2C(=O)c2ccc([N+](=O)[O-])cc2)cc1 (stereo not drawn)
68	-5.0%	-7%	5	-2%	C=CCSc1cc(C)nc2c(-c3ccc(Cl)cc3)c(C)nn12
69	-4.9%	-1%	/	-6%	Cn1cc(/C=C(\NC(=O)c2ccccc2Cl)C(=O)N2CCOCC2)c2ccccc21
70	0.5%	-13%	7	-9%	NC(=O)C1CCN(C(=O)CSCc2ccccc2Cl)CC1
71	1.6%	1%	1	9%	O=c1[nH]ncn2cccc12
72	3.5%	-4%	7	-10%	COc1cc(OC)cc(C(=O)OCC(=O)Nc2ccc(N3CCCCC3)cc2)c1
73	0.9%	-7%	3	0%	CC(=O)Nc1ccc(S(=O)(=O)NNC(=O)COc2cccc(C)c2)cc1
74	-1.2%	2%	/	20%	C=CCN(C(=O)c1csnn1)C(C(=O)NCc1ccc(F)cc1)c1ccccc1F (stereo not drawn)
75	1.8%	-32%	-17	3%	COCCNC(=S)NNc1ccccc1[N+](=O)[O-]
76	-1.5%	5%	-6	-18%	CC1CN(c2ccc([N+](=O)[O-])nc2)CC(C)O1 (stereo not drawn)
77	0.5%	/	/	3%	CC(=NNC(N)=O)C1=C(O)C(C(C)C)NC1=O (stereo not drawn)
78	/	-5%	-5	/	COc1ccc(C(C#N)Nc2ccccc2)cc1 (stereo not drawn)
79	5.4%	-15%	4	4%	CCCC(=O)Nc1nnc(-c2ccc3c(c2)OCO3)s1
80	-1.1%	0%	13	-19%	O=C(NCc1ccccc1)C1CCCN(c2nc3ccsc3c(=O)s2)C1 (stereo not drawn)
81	2.6%	-11%	2	4%	COc1cc2c(OC)cccc2cc1C(=O)O
82	2.3%	2%	-3	-3%	CCOC(=O)C1CCCN(Cc2nc(C3CC3)no2)C1 (stereo not drawn)
83	-4.0%	-24%	-5	2%	O=C(CSc1nnc2n1CCCN2C(=S)Nc1ccc(Cl)cc1)c1ccccc1
84	-0.3%	/	/	15%	Cc1noc(C)c1NC(=O)Nc1cccc2c1O[C@H](CN(C)C(=O)NC(C)C)[C@@H](C)CN([C@H](C)CO)C2=O
85	2.5%	-12%	-9	15%	Cc1ccc(-n2cc(CN3CCN(C(=O)c4ncn[nH]4)CC3)c(-c3ccc(F)cc3)n2)cc1
86	1.3%	-9%	-1	3%	Cn1c(O)c(N=Nc2nc(-c3ccccc3)cs2)c2ccccc21

Part of the list above in order of count of non-hydrogen atoms, lowest first:
No.	Rango complex inh	miR-21 reporter	GLA inh pH 4.5	Rango dissoc inh	SMILES
76	-1.5%	5%	-6	-18%	CC1CN(c2ccc([N+](=O)[O-])nc2)CC(C)O1 (stereo not drawn)
82	2.3%	2%	-3	-3%	CCOC(=O)C1CCCN(Cc2nc(C3CC3)no2)C1 (stereo not drawn)
68	-5.0%	-7%	5	-2%	C=CCSc1cc(C)nc2c(-c3ccc(Cl)cc3)c(C)nn12
62	1.3%	/	/	1%	Cc1ccc(C(=O)COC(=O)COc2ccccc2O)cc1C
65	1.9%	-1%	-3	-5%	Fc1ccccc1Cn1nnc2c(NCc3ccccn3)ncnc21
73	0.9%	-7%	3	0%	CC(=O)Nc1ccc(S(=O)(=O)NNC(=O)COc2cccc(C)c2)cc1

This is a subset. The share of hits here may be higher or lower than overall.
